Screening results deposited in PubChem BioAssay by National Center for Advancing Translational Sciences (NCATS).
Prx2 Sm inh: Schistosoma Mansoni Peroxiredoxins (Prx2). Schistosoma mansoni peroxiredoxin 2 (Prx2). S. mansoni Prx2 activity coupled to TGR/GSH (TGR is thioredoxin glutathione reductase), NADPH fluorescence loss, qHTS; some inactives read as strong as hits. Potency, µM. 0.07% of 65,000 active. AID 448, 2006; active means full or partial inhibition curve with a strong effect at the top dose; inconclusive means weaker partial or single-point curve; inactive means no accepted curve; also: series up to 57 µM; many of its hits are not listed in these tables
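Enzyme mix: 100 uM NADPH, 25 nM TGR, 700 uM GSH, 50 nM Prx2 in 100 mM phosphate pH 7.4, 10 mM EDTA, 0.01% Tween-20. 15 min RT with compound; NADPH/GSH added, H2O2 starts reaction; NADPH fluorescence read 8 min.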
Anthrax LT inh: qHTS Assay for Anthrax Lethal Toxin Internalization; Cells, anthrax lethal toxin internalization, FRET ratio (460/530); Potency, µM (series often up to 40 µM), without a hit: at the top dose activity change, negative = inhibition, most hits filed as inhibitors; 0.67% of 70,000 active; AID 912, 2007; active = well fitted falling ratio curve with the 530 nm signal flat; inconclusive = other ratio curves, or a change in one channel alone; inactive = flat curves in the ratio and both channels; the % refers to the ratio; also: % is scaled to controls: 0 for no effect and ±100 for the full control effect; nearly all actives have a fitted effect of over 50% in size; tested in ME-180 cells; beta-lactamase reporter
* = called active by the depositor; u = inconclusive; x = no result given; & = joins results of further samples; [ ] = remark or other dose. Potency is read from the fitted curve at half-maximal effect. Some of the compounds tested; rates above refer to the full screens.

A first look (5 entries):
Sequence of screens: Prx2 Sm inh	Anthrax LT inh
- CCOc1cccc2c1OC1(C)CC2NC(=O)N1c1cccc(Cl)c1 (centres undefined)
→ >57	4%
- COc1ccc(OC)c(CNC(=O)Cc2c(C(=O)O)[nH]c3ccccc23)c1
→ >57	u
- COc1ccc(NC(=O)c2ccc(C(=O)c3ccccc3)o2)cc1
→ >57	4%
- CCn1c(=N)n(CC(O)COc2cccc(C)c2)c2ccccc21 (centres undefined)
→ >57	-6%
- Cc1cc2nc3c(c(=O)n2[nH]1)CCCC3
→ x	0%

Main list, previewed entries included:
Sequence of screens: Prx2 Sm inh	Anthrax LT inh
- CCOc1cccc2c1OC1(C)CC2NC(=O)N1c1cccc(Cl)c1 (centres undefined)
→ >57	4%
- COc1ccc(OC)c(CNC(=O)Cc2c(C(=O)O)[nH]c3ccccc23)c1
→ >57	u
- COc1ccc(NC(=O)c2ccc(C(=O)c3ccccc3)o2)cc1
→ >57	4%
- CCn1c(=N)n(CC(O)COc2cccc(C)c2)c2ccccc21 (centres undefined)
→ >57	-6%
- Cc1cc2nc3c(c(=O)n2[nH]1)CCCC3
→ x	0%
- N#Cc1c(N)c(C(=O)c2ccc(Cl)cc2)n2c1CCC2
→ >57	-20%
- O=C(c1ccccc1)c1ccccc1C(=O)N1CCOCC1
→ >57	21%
- CCc1ccc(-c2nnn(Cc3nn[nH]n3)n2)cc1
→ >57	u
- Cc1onc(-c2ccccc2)c1C(=O)N1CCc2ccccc21
→ x	-2%
- O=C(Nc1ccc(N2CCOCC2)c(Cl)c1)c1cccnc1
→ >57	-2%

Additional structures follow:
Sequence of screens: Prx2 Sm inh	Anthrax LT inh
- COc1ccc(CCN(C)CCc2ccc(OC)c(OC)c2)cc1OC
→ >57&>57	-13%&-5%
- CCOC(=O)CSc1nc(C2CC2)nc2ccccc12
→ >57	-18%
- Cc1[nH]c2ccccc2c1C(=O)CN1CCN(C2CCCCC2)CC1
→ >57	-2%
- COC(=O)c1ccccc1NC(=O)c1cc2n(n1)C(C(F)F)CC(C(F)F)N2 (centres undefined)
→ >57	-1%
- Cc1ccc(S(=O)(=O)N2CCC(C(=O)O)CC2)cc1C(=O)O
→ >57	9%
- CCOC(=O)C(C)Sc1nc2ccccc2c(=O)n1CC (centres undefined)
→ >57	-2%
- CCc1c(C)nc(SCC(=O)CC(=O)OC(C)C)c(C#N)c1C
→ >57	-11%
- CCc1cc2c(s1)NC(=O)CN=C2c1cccs1
→ >57	7%
- CCC1CCCCN1C(=O)CSc1nnc(-c2ccc(OC)cc2)o1 (centres undefined)
→ >57	-5%
- Fc1ccc(F)c(CN2CCN(c3ncccn3)CC2)c1
→ >57	-7%

(next part)
Sequence of screens: Prx2 Sm inh	Anthrax LT inh
- CC(=O)c1ccc(Oc2ncnc3sccc23)c(CN2CCOCC2)c1
→ >57	7%
- COCCNS(=O)(=O)c1ccc2c(c1)oc(=O)c1cc(S(=O)(=O)NCCOC)ccc12
→ >57	-3%
- Nc1nc(N)c(-c2cccc(C(F)(F)F)c2)c(Cc2cccc(C(F)(F)F)c2)n1
→ >57	-6%[8 µM]
- Cc1nn(-c2ccccc2)c(=S)n1-c1ccccc1
→ >57	3%
- Cc1cnc(C)c(N2CCC(C(=O)NC(C)c3cccs3)CC2)n1 (centres undefined)
→ >57	-4%
- COCCNC(=O)CSCc1c(F)cccc1Cl
→ >57	1%
- FC(F)(F)C12CC(c3ccccc3)=NCCN1CCN2 (centres undefined)
→ >57	u
- O=C(O)C1C2C=CC3(CN(c4cccc(C(F)(F)F)c4)C(=O)C13)O2 (centres undefined)
→ >57	13%
- COc1ccc2oc(=O)cc(C)c2c1
→ >57	-3%
- Cc1ccc(S(=O)(=O)N(C)CC(=O)N2CCN(c3ccccn3)CC2)cc1
→ >57	11%

Next results follow.
Sequence of screens: Prx2 Sm inh	Anthrax LT inh
- CC(=O)Nc1ccccc1N(C)S(=O)(=O)c1ccc(C)cc1
→ >57	-9%
- CCCOc1ccc(C(=O)N2CCCc3ccccc32)cc1
→ >57	u
- CCN(CC)c1nc(-c2nn[nH]n2)nc(N(CC)CC)n1
→ >57	17%
- CCOC(=O)Nc1ccc2c(c1)nc(CN1CCN(C(C)=O)CC1)n2C
→ >57	9%
- O=S(=O)(c1ccccc1S(=O)(=O)N1CCCCC1)N1CCCCC1
→ >57	12%
- CCCn1c2c(c(O)c(C(=O)Nc3ccccc3)c1=O)CCCC2
→ >57	-3%
- c1ccc2[nH]c(CCNC3CCCCC3)nc2c1
→ >57	5%
- Nc1nc2c(C(=O)NCc3cccs3)nnn2c2cccc(Cl)c12
→ >57	2%[8 µM]
- O=c1cnc2cnc(Oc3ccccc3)nc2n1C[C@H]1CCCO1
→ >57	-13%
- O=C(O)c1cc(-c2ccccc2)c(N2CCOCC2)s1
→ >57	u

More records
Sequence of screens: Prx2 Sm inh	Anthrax LT inh
- CCCOC(=O)CN1C(=O)c2ccccc2C1=O
→ >57	-12%
- CCSc1nnc(CNc2ccc(F)cc2)n1CC1CCCO1 (centres undefined)
→ >57	-2%
- O=C(CSc1ncnc2c1oc1ccccc12)Nc1cccc(F)c1
→ >57	-3%
- N#CC(C(=O)OC1CCCCC1)c1nc2ccccc2nc1N1CCCCC1 (centres undefined)
→ >57	7%
- FC(F)(F)c1cccc(-c2ccc(-c3csnn3)o2)c1
→ >57	u
- CCC(=O)N1CCc2cc(Br)cc(S(=O)(=O)N3CCCCCC3)c21
→ >57	3%
- CCC(C)NC(=O)C1CCN(S(=O)(=O)CC)CC1 (centres undefined)
→ >57	9%
- COc1ccc2c(c1)C(C)CC(C)(C)N2C(=O)CSc1ncn[nH]1 (centres undefined)
→ >57	10%
- Oc1ccccc1-c1cc(-c2ccccc2Cl)[nH]n1
→ >57	u
- c1coc(C2Nc3cccc4cccc(c34)N2)c1
→ >57	4%

The results go on:
Sequence of screens: Prx2 Sm inh	Anthrax LT inh
- C[C@]12CC[C@H]3c4ccc(O)cc4CC[C@@H]3[C@H]1C/C(=N/O)[C@H]2O
→ >57	-5%[8 µM]
- C=CCOC(=O)C(C(C)=O)C(NC(=O)OC)c1ccc2ccccc2c1 (centres undefined)
→ x	-10%[8 µM]
- CCCc1cc2c(n1Cc1cc(F)cc(F)c1)C(C)C1CN(C(=O)c3ccccc3)C(C)(C(=O)OC)C21 (centres undefined)
→ >57	3%
- CCCC(C)C(=O)Nc1ccc2c(c1)OCCO2 (centres undefined)
→ >57	22%
- COc1ccc2c(c1O)-c1cccc3c1[C@H](C2)N(C)CC3
→ >57	u
- Cc1ccc(S(=O)(=O)N(C)CC(=O)NC2CC(C)(C)NC(C)(C)C2)cc1
→ >57	3%
- CC(=O)c1cccc(-n2nnnc2SCC(=O)N2CCCC2)c1
→ >57	-16%
- Cc1c(OCc2ccc(C(=O)O)o2)ccc2c3c(c(=O)oc12)CCC3
→ >57	-10%
- O=C(c1ccccc1NS(=O)(=O)c1cccs1)N1CCOCC1
→ >57	-4%
- CS(=O)(=O)c1ccc2nc(NC3(C(F)(F)F)N=C4SCCN4C3=O)sc2c1 (centres undefined)
→ >57	-16%

Next section
Sequence of screens: Prx2 Sm inh	Anthrax LT inh
- COc1ccc(C(=O)N2CCN(S(=O)(=O)c3ccc(C)cc3C)CC2)cc1OC
→ >57	u
- Cn1c(NCCCN2CCOCC2)nc2c1c(=O)n(Cc1ccc(Cl)cc1)c(=O)n2C
→ >57	11%
- COc1ccc(NC(=O)N2CC3(CCN(S(=O)(=O)c4ccccc4)CC3)C2)cc1
→ >57	17%
- O=C(c1ccccc1-c1ccccc1)N1CCN(c2ccccn2)CC1
→ >57	-12%
- COc1cc(C(=O)NCCc2cn3ccc(C)cc3n2)cc(OC)c1OC
→ >57	17%
- O=C(c1cc(F)c(F)cc1Cl)N1CCCCC1
→ x	-2%
- c1ccc(Cn2ncc3c2ncn2c(-c4ccncc4)nnc32)cc1
→ >57	u
- CCCCn1c(=N)n(CC(O)COc2cccc(C)c2)c2ccccc21 (centres undefined)
→ >57	-16%
- Cc1occc1C(=O)NCCCc1ccccc1
→ x	-11%
- Cn1c(=O)n(Cc2ccccc2)c(=O)c2c1nc1n2CCS1
→ >57	-26%

Later entries
Sequence of screens: Prx2 Sm inh	Anthrax LT inh
- Cc1csc(SCC(=O)Nc2cc(C(C)(C)C)nn2-c2ccccc2)n1
→ >57	-16%
- CC[N+]1(C)[C@@H]2CC[C@H]1CC(OC(=O)[C@H]1CC[C@@](C(=O)OC3C[C@H]4CC[C@@H](C3)[N+]4(C)CC)(c3ccccc3)c3ccccc31)C2 (some centres undefined)
→ u	19%[3.58 µM]
- COc1ccc(C(=O)N2CCN=C2SCc2cccnc2)c(OC)c1
→ >57	6%
- Nc1nc(N2CCOCC2)nc2ccccc12
→ >57	x
- CC(C)(C)OC(=O)N1CCOCCOCCN(C(=O)OC(C)(C)C)CCOCCOCC1
→ >57	-2%
- CCOc1ccc(C(=O)Nc2ccc3c(c2)OCCO3)cc1OC
→ >57	2%
- CCOC(=O)C1C2NC(=O)N(Cc3ccccc3)C1(C)Oc1c(OC)cccc12 (centres undefined)
→ >57	7%
- CCCCn1c(NC(C)CC)nc2c1c(=O)[nH]c(=O)n2C (centres undefined)
→ >57	-2%
- CC1(C)CC(=O)C2=C(C1)N(Cc1cccnc1)C(=O)C2(NC(=O)C1CC1)C(F)(F)F (centres undefined)
→ >57	x
- Cc1ccc(N(C)C)cc1
→ x	u

Other entries:
Sequence of screens: Prx2 Sm inh	Anthrax LT inh
- N#Cc1ccc(Oc2cccc(C(=O)O)c2)cc1C#N
→ >57	-11%
- COc1ccc(F)cc1CN1CCN(C(=O)CCC(=O)Nc2nnc(C(C)C)s2)CC1
→ >57	3%
- COC(=O)c1ccc(NC(=O)C2C3CCC(C3)C2C(=O)O)cc1 (centres undefined)
→ >57	6%
- COc1ccc(NC(=O)CCC2CCCC2)cc1OC
→ >57	6%
- NCCC[C@@H](CC(=O)N[C@@H]1CCCC[C@H]1C(=O)N[C@H](CC(=O)N[C@@H](CCC(=O)O)CC(=O)O)Cc1c[nH]c2ccccc12)NC(=O)C[C@H](CO)NC(=O)[C@@H]1CCCC[C@H]1N
→ >57	-7%
- O=C(NCc1ccco1)c1ccccc1NS(=O)(=O)c1ccc2c(c1)OCCO2
→ >57	-7%
- CCCOc1ccc(N2C(=O)CC(NCCCN3CCC(C(N)=O)CC3)C2=O)cc1 (centres undefined)
→ >57	14%
- O=C(Nc1cccc(F)c1)N1CC[C@@]2(CCCN(C(=O)c3cc(C(F)(F)F)cc(C(F)(F)F)c3)C2)C1
→ >57	-3%
- CCN(CC)CCCNC(=O)C1c2ccccc2C(=O)N(C)C1c1ccc(OC)cc1 (centres undefined)
→ >57	12%
- S=C1NCN2CCN(CC2)CNC(=S)C(=S)NCN2CCN(CC2)CNC1=S
→ >57	u

New compounds follow.
Sequence of screens: Prx2 Sm inh	Anthrax LT inh
- Cc1cc(C)nc(NS(=O)(=O)c2ccc(NC(=O)c3cccs3)cc2)n1
→ >57	14%
- Cc1cccc(CSc2ncnc3nc[nH]c23)c1
→ >57	-2%
- Cc1ccc(N(C)C(=O)Oc2cccc3cccnc23)cc1
→ >57	-4%
- C[C@]1(c2ccccc2)OC(C(=O)O)=CC1=O
→ >57	0%
- NCCC[C@@H](CC(=O)N[C@@H]1CCCC[C@H]1C(=O)N[C@H](CC(=O)N[C@@H](CCC(=O)O)CC(=O)O)Cc1ccccc1)NC(=O)C[C@H](Cc1c[nH]c2ccccc12)NC(=O)[C@@H]1CNCC[C@H]1N
→ >57	-8%
- O=C(Nc1ccccc1)N1CC2(CCN(C(=O)c3cccc(F)c3)CC2)C1
→ >57	7%
- Cc1nn(-c2ccccc2)c2c1C1(C(=O)N(C)c3ccccc31)N(c1ccccc1)C(=O)N2 (centres undefined)
→ >57	9%
- Cc1csc(NC(=O)CN(C)S(=O)(=O)c2cccc3cccnc23)n1
→ >57	-1%
- OC(COc1ccccc1)Cn1cc(Br)cn1 (centres undefined)
→ >57	4%
- CC(C)OC(=O)CCCN1C(=O)c2ccc(N)cc2C1=O
→ >57	-13%

Additional entries.
Sequence of screens: Prx2 Sm inh	Anthrax LT inh
- CC(=O)N1CCc2cc(S(=O)(=O)NC(CC(C)C)C(=O)Nc3cc(C(=O)O)ccc3C)ccc21 (centres undefined)
→ >57	9%
- Cc1nc(SCCCSc2n[nH]c(C)n2)n[nH]1
→ >57	u
- O=C(c1ccc(S(=O)(=O)N2CCOCC2)cc1)N(c1ccccc1)C1C=CS(=O)(=O)C1 (centres undefined)
→ >57	6%
- O=C(NC1CCC(C(=O)O)CC1)OCc1ccccc1 (centres undefined)
→ >57	x
- CC1(C)Cc2c(sc3c2c(=N)n(Cc2ccco2)c(=O)n3CC(=O)Nc2cccc(Cl)c2)CO1
→ >57	x
- COc1ccc(Br)cc1S(=O)(=O)n1ccnc1C
→ >57	-24%
- Cc1n[nH]c(C)c1S(=O)(=O)N1CCCC(C(=O)NC2CCCc3ccccc32)C1 (centres undefined)
→ >57	-10%
- O=C(Nc1cnn(Cc2ccc(F)cc2)c1)c1cc(-c2cccs2)on1
→ >57	0%
- C=CCn1c(SCC(=O)Nc2ccccc2)nnc1-c1cccc(S(=O)(=O)N2CCOCC2)c1
→ >57	6%
- Clc1ccccc1CNCC1CCC(CNCc2ccccc2Cl)CC1 (centres undefined)
→ >57	4µM*
